Menin MLL FP FL: qHTS Assay for Inhibitors Targeting the Menin-MLL Interaction in MLL Related Leukemias: Competition With Fluorescein Labeled MLL-derived Peptide; Fluorescence polarization, fluorescein-MLL peptide displacement from menin; FP activity change, % at 61.4 µM; 290,000 tested, under 10 active; AID 1766, 2009; inconclusive = falling polarisation curve, or a change in total fluorescence; inactive = total fluorescence flat and polarisation flat or rising; no compound was filed as active; the % refers to the polarisation; negative = inhibition;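 also: % of control where 0% means no effect; inhibitors lower the polarisation; unlabelled MLL peptide was the positive control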
gsp agonist: qHTS for Agonist of gsp, the Etiologic Mutation Responsible for Fibrous Dysplasia/McCune-Albright Syndrome: qHTS; AID 624287, 2012; hit rate 0.13% among 340,000; gsp mutant cells, cAMP HTRF, 30 min; control for the full effect not named in the record; Potency, µM (highest dose often 76.9 µM), for inactives: at the top dose activation (cAMP increase), actives largely listed as activators; active = well fitted activation curve with a large enough effect; inconclusive = small, poorly fitted or top-dose-only effect, or another doubt; inactive = no such curve, though single readings can be large or run the other way; cell line not stated here;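 also: phosphodiesterase inhibitor Ro 20-1724 added with compounds to block cAMP breakdown; potency is read from the fitted curve at half-maximal effect; nearly all actives have a fitted effect of over 60% in size; about a fifth of the inactives were tested at one dose only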
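Cells stably selected in G418 were plated at 2000/well, grown 16-24 hr, then given compounds in DMSO with the PDE inhibitor […] (300 uM solution added) for 30 min at 37C; cAMP was read by HTRF.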
Sfp PPTase inh: qHTS Assay for Inhibitors of Bacillus subtilis Sfp phosphopantetheinyl transferase (PPTase); 4'-phosphopantetheinyl transferase ffp (Bacillus subtilis), Q9F4F7; Biochemical Sfp PPTase activity, qHTS; Potency, µM, without a hit: max response, negative = inhibition, usual class: inhibitors; hit rate 3.5% among 310,000; AID 1490, 2009; active = well fitted inhibition curve with a large enough effect; inconclusive = small, poorly fitted or top-dose-only effect, or another doubt; inactive = no such curve, though single readings can be large or run the other way;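 also: the enzyme is Sfp with the accession as filed and its product quenches rhodamine fluorescence; potency is read from the fitted curve at half-maximal effect; 0% = enzyme reaction without inhibitor and -100% = no enzyme wells; top concentration of the series not given in the record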
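Fluorescence-quenching assay: 15 nM Sfp-PPTase preincubated 15 min at room temperature with compound, then 5 uM rhodamine-CoA and 12.5 uM BHQ-2-labelled YbbR peptide added. Fluorescence (ex 525/em 598 nm) read at start and after 30 min; difference gives rate.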
TRPV1 PAM: HTS Assay for Compounds that Act as Potentiators of the Vanilloid Receptor 1; Transient receptor potential cation channel subfamily V member 1 (Homo sapiens), Q8NER1; TRPV1-expressing cells, Fluo-8 calcium influx, capsaicin EC20 potentiation; host cell line not named in the record; control for the full effect not named in the record; potentiation, % at 8.33 µM; hit rate 0.02% among 320,000; active means potentiation above 80%; inconclusive means 30% to 80%; inactive means below 30%; also: 0% is about no effect
Target sequence (Q8NER1 whole entry, looked up): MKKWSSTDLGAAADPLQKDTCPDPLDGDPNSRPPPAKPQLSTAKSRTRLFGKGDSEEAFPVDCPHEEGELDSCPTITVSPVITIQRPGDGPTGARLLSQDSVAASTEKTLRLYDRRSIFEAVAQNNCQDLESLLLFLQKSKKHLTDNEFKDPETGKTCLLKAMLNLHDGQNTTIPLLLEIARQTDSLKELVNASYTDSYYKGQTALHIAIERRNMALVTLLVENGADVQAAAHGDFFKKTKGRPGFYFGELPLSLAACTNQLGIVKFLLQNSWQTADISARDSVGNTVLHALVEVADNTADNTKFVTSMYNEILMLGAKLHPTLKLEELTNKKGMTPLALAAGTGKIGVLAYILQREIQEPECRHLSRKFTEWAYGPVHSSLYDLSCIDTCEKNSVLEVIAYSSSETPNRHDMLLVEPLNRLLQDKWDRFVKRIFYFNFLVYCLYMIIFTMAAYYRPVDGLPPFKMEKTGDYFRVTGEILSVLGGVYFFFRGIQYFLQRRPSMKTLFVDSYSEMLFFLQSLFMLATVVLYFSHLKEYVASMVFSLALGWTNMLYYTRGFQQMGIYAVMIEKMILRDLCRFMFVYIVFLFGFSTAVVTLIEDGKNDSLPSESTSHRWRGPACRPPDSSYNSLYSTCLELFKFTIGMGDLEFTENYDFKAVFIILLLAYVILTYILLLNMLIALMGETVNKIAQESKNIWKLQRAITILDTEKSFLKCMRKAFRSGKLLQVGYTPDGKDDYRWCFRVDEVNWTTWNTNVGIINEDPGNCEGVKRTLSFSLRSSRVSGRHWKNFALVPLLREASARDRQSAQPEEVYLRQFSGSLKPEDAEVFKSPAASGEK
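Fluo-8 calcium influx in TRPV1-expressing cells, kinetic read (ex 480/em 520 nm). Compound added and read 3 min for agonist activity, followed by capsaicin at EC20 final and 2 min further read for enhancement.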
CtBP-E1A blk: qHTS Assay for Inhibitors of the CtBP/E1A Interaction | CtBP / adenovirus E1A interaction (AlphaScreen) | AlphaScreen GST-E1A/His-CtBP binding, 1536-well; hits give low values; control for the full effect not named in the record | activity change, % (no concentration beside the values) | hit rate 0.49% among 340,000; in the data active means activity change below about -65%; inconclusive means about -30% to -65%; inactive means above about -30%; also: % is scaled to controls: 0 for no effect and ±100 for the full control effect; compound concentration not given in the record
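Steps: dispense buffer (Tris pH 8.0, NaCl 300 mM, TCEP 1 mM, BSA, Tween 20); add 5X protein mix (GST-E1A, His-CtBP, 125 nM each); pin 23 nL compound; 2 h at 37 °C, dark; add 5X beads (50 ug/mL); 1 h; read.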
ClpP mod: qHTS Assay for Activators of ClpP | Potency, µM (doses to about 57.5 µM), for inactives: at the top dose activity change, negative = active | ATP-dependent Clp protease proteolytic subunit (Bacillus subtilis (strain 168)), P80244 | purified B. subtilis ClpP, FRET peptide cleavage, 20 min | hit rate 1.9% among 340,000; active = well fitted falling curve with a large enough effect; inconclusive = small, poorly fitted or top-dose-only effect; inactive = no such curve, though single readings can be large or run the other way; also: potency is read from the fitted curve at half-maximal effect; the source files actives as falling curves though it sought activators and does not explain the sign; nearly all actives have a fitted effect of over 65% in size; many hits overshoot -100%
Target sequence (P80244 whole entry, looked up): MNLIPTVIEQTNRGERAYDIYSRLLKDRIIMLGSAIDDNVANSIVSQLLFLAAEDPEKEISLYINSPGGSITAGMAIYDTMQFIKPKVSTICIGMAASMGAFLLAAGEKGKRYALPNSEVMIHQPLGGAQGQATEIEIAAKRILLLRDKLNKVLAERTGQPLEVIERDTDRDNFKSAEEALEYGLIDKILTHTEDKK
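Purified B. subtilis ClpP, 10 microg/mL final in Tris/HCl pH8 with KCl, BSA, glycerol and Tween-20, cleaved an Abz/nitrotyrosine-quenched decapeptide. Fluorescence (ex 320, em 430) was read at 0 and 20 min at room temperature. Delta was normalized to 5.8 microM ADEP and DMSO/no-enzyme controls.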
gsp antagonist: qHTS for Antagonists of gsp, the Etiologic Mutation Responsible for Fibrous Dysplasia/McCune-Albright Syndrome: qHTS. hit rate 0.4% among 340,000. gsp-mutant cells, cAMP HTRF, 30 min; control for the full effect not named in the record. AID 624288, 2012. Potency, µM (highest dose often 76.9 µM), for the others: at the highest dose activity change, negative = inhibition, most hits filed as inhibitors; active = falling curve of any shape with a large fitted effect; inconclusive = falling curve, mostly with a smaller effect; inactive = flat or rising curve; cell line not stated here;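 also: intracellular cAMP measured with PDE inhibitor Ro 20-1724 present during compound exposure; potency is read from the fitted curve at half-maximal effect; % is scaled to controls: 0 for no effect and ±100 for the full control effect; nearly all actives have a fitted effect of over 65% in size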
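Measurement of cellular cAMP by homogeneous time-resolved fluorescence following a 30 min compound exposure at 37C. The PDE inhibitor […] was present throughout; the assay buffer was DPBS with 0.05% BSA and 0.005% Tween 20.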
* marks the source's active call; other numbers are inactive results; ? = inconclusive; . = no result given; & = joins results of further samples; [ ] = another dose, or the depositor's remark.

SMILES	Menin MLL FP FL	gsp agonist	Sfp PPTase inh	TRPV1 PAM	CtBP-E1A blk	ClpP mod	gsp antagonist
Cc1ccc(CCNC(=O)CCn2c(=O)c3cccn3c3ccc(F)cc32)cc1	1.1	?	2.0%	-2.8	-6.6	?	-1.1%
CCOC(CNc1ncnc2c1cnn2C)OCC	-3.0	1.1%[15.4 µM]	12.2%	14.9	9.0	0.2%	6.7%
O=c1[nH]c(CN2CCN(C/C=C/c3ccccc3)CC2)nc2ccccc12	7.1	-9.3%	-1.0%	6.5	-4.5	-7.8%	7.8%
O=C(O)CCNc1ccc(NCCC(=O)O)c2c1C(=O)c1ccccc1C2=O	?	?	-12.8%	-9.0	.	0.8%	?
Cc1ccccc1OCCC(=O)NNC(=O)c1ccccc1F	.	-5.4%	.	.	.	-1.1%	8.7%
CC(=O)/C=C1\N(C)c2ccc(C)cc2C1(C)C	-1.7	17.1%	10.1%	18.5	-1.3	.	-5.5%
Cc1ccc2nc(Nc3ccc4[nH]c(=O)[nH]c4c3)c(-n3nc(C)cc3C)nc2c1	4.6	8.3%	-6.4%	-47.5	7.7	-0.6%	7.7%
CCCCNc1n[n+](C)c(-c2cccc(C)c2)s1	-0.5	.	-13.6%	-4.0	.	.	.
CCN(CC)S(=O)(=O)c1ccc2oc(Nc3ccc(OC)cc3)nc2c1	-2.8	3.2%[15.4 µM]	7.4%	23.7	-20.4	.	-19.8%
COc1ccc(OC)c(N(CC(=O)Nc2ccc(NC(C)=O)cc2)S(C)(=O)=O)c1	0.1	3.7%	16.4%	2.3	8.1	-0.2%	-3.9%
CC1CCCCC1NC(=O)/C(C#N)=C/C=C/c1ccccc1[N+](=O)[O-] (stereo not given)	11.8	-62.9%[inhibitor]	-12.5%	23.2	0.6	-0.8%	-6.2%
N=c1c(C(=O)NC2CCCC2)cc2c(=O)n3ccccc3nc2n1CCCN1CCOCC1	-11.6	26.4%[15.4 µM]	15.3%	2.3	18.2	-0.8%	-19.8%
Cc1ccc(S(=O)(=O)N(C)C)cc1NC(=O)c1cc(=O)c2ccccc2o1	2.9	-7.0%[15.4 µM]	3.1%	-8.6	-24.7	-2.6%	2.4%
NC(=O)N/N=C/c1c(F)cccc1F	4.8	14.2%	-11.6%	-1.0	5.0	-4.1%	-17.5%
COCCN(Cc1ccccc1)C(=O)c1cc(-c2ccc(OC)c(OC)c2)nc2ccccc12	.	10.0%[15.4 µM]	-2.6%	-19.1	-12.4	?	-9.5%
CC(=O)N1CCC(N(CCN2CCOCC2)C(=S)Nc2cc(C)ccc2C)CC1	-0.3	-32.6%[inhibitor]	-3.0%	4.3	2.7	-2.1%	3.7%
CC(=Nc1ccccc1)C1=C(O)C(Cc2ccccc2)NC1=O (stereo not given)	.	-1.3%	.	.	4.6	-19.6%	11.0%
COc1ccc(OC)c(S(=O)(=O)NCc2cc(-c3ccccc3)no2)c1	2.3	23.3%	9.0%	0.6	2.1	1.8%	-11.1%
O=C(COCc1ccccc1)N[C@@H](Cc1ccc(O)cc1)C(=O)O	-3.0	-1.5%	18.9%	?	0.8	-1.3%	3.5%
COc1ccc(/C=C2\SC(N)=NC2=O)cc1	-6.3	3.4%[15.4 µM]	8.3%	1.3	0.3	-0.2%	-0.9%
CCCCCOCC1CC(C/C(C)=N/Nc2nc(-c3ccccc3)cs2)C(=O)O1 (stereo not given)	0.7	24.3%	70.8µM*	.	2.3	1.5%	-0.4%
O=C(Nc1cc(Cl)ncn1)c1ccccc1	.	11.0%[15.4 µM]	.	.	-0.4	.	-12.7%
CC(Cc1ccccc1)NC(=O)c1cc2ccccc2o1 (stereo not given)	-1.0	-16.9%	3.8%	?	12.1	.	2.3%
CN(CC(=O)N1CCOCC1)S(=O)(=O)c1ccc2ccccc2c1	-1.0	-37.8%	19.2%	-20.4	-0.3	-4.3%	4.3%
O=C(COC(=O)c1ccc(Cl)c(S(=O)(=O)N2CCCCCC2)c1)NCc1ccccc1	.	14.4%	.	.	-2.1	0.1%	.
COc1ccc(-c2cc(-c3ccc(OC)cc3)nc(-c3ccc4c(c3)NC(=O)CO4)c2)cc1	3.7	-32.5%[inhibitor]	?	-2.2	-3.6	?	11.9%
O=C(CC(Sc1n[nH]c(-c2ccccc2)n1)c1ccccc1)NCc1ccccc1 (stereo not given)	-1.1	?	27.4%	-4.4	-1.8	-1.0%	-21.0%
CC(C)(C)NCC(O)COc1ccc(Br)cc1 (stereo not given)	1.6	-36.7%[inhibitor]	5.7%	?	10.4	1.6%	3.4%
CCC(=O)N1CCc2cc(S(=O)(=O)CCC(=O)NCc3cccc(OC)c3)ccc21	.	0.2%	10.7%	-2.9	.	3.0%&-20.6%	10.8%
Cc1cccc(N2CCN(C(=O)c3ccc(-n4cncn4)c([N+](=O)[O-])c3)CC2)c1C	.	?	2.6%	11.6	-0.8	-0.9%	-16.0%
CC(C)(C)NC(=S)NC(=O)C12CC3CCC(CC(C3)C1)C2	-1.3	-10.5%	11.3%	-6.5	-0.7	-0.2%	-2.9%
CNC(=O)C(=O)Nc1cc2c3c(c1)CCN3C(=O)CC2	-1.8	5.7%	11.1%	-14.0	-0.1	-0.4%	8.3%
Fc1ccccc1-c1n[nH]c(=S)n1/N=C/c1c[nH]c2ccccc12	3.1	-8.2%[15.4 µM]	-9.4%	?	4.2	1.4%	-8.5%
O=C(NCc1ccccc1)C1CCN(S(=O)(=O)N2CCCCCC2)CC1	0.3	-5.9%	8.7%	-10.1	12.6	-0.3%	9.3%
CCC(NC(=O)c1oc2ccccc2c1COC)c1ccc(OC)cc1 (stereo not given)	-4.4	?	3.3%	5.7	7.5	-4.9%	-21.9%
CC(=O)C1=C(O)C(=O)N(CCC(=O)O)C1c1ccccc1Cl (stereo not given)	0.6	5.2%	15.2%	20.2	2.1	-14.5%	5.1%
COc1ccc(F)cc1S(=O)(=O)n1cnc2ccccc21	2.3	1.1%	11.8%	-12.3	-3.7	-1.2%	6.1%
Cn1ccnc1SC(C(=O)O)c1ccccc1 (stereo not given)	4.0	-35.2%[inhibitor]	-16.1%	24.0	.	-3.0%	4.8%
O=C(NNC(=O)c1cccs1)c1ccc(Cl)cc1	1.1	13.5%	14.4%	-0.2	1.6	.	10.2%
CC1CN(c2nc3ccccc3nc2SCC(=O)Nc2ccc(F)cc2)CC(C)O1 (stereo not given)	3.9	?	-8.5%	1.4	9.1	-16.9%	-14.3%
Cc1ccc(NC(=O)Cn2c(=O)n(Cc3ccco3)c(=O)c3ccccc32)c(C)c1	-0.5	3.2%	?	-0.6	1.1	3.0%&0.9%	9.1%
OCC1(CCCc2ccccc2)CCN(Cc2cnc(N3CCOCC3)s2)CC1	2.7	0.6%[15.4 µM]	1.4%	8.7	-21.0	-0.7%	-5.2%
O=S(=O)(c1cccc(-c2cn3ccccc3n2)c1)N1CCCC1	.	-43.5%[inhibitor]	3.9%	1.5	?	?	-1.8%
N#Cc1ccccc1CN1C(=O)S/C(=C/c2cccn2-c2cccc(C(=O)O)c2)C1=O	?	-62.4%[inhibitor]	-18.1%	-11.9	-17.4	-6.0%	-29.6%
c1ccc(Oc2c3ccccc3nc3ccccc23)cc1	3.0	1.7%[15.4 µM]	-1.2%	-1.2	0.9	0.7%	20.1%
Cn1c(N2CCCC2)nc2c1c(=O)[nH]c(=O)n2C	3.9	-30.2%[inhibitor]	17.0%	10.1	-1.2	.	2.0%
COc1cccc2c(=O)cc(C)n(CC(=O)Nc3cccc(C)c3)c12	1.2	17.6%	11.4%	7.7	.	3.6%	-24.3%
CCc1cc(C(=O)N2CCN(S(=O)(=O)c3ccccc3F)CC2)sc1C	.	-25.1%	.	-16.1	-13.0	-4.2%	-15.7%
O=c1cnnc(NCc2ccccc2)[nH]1	0.7	2.4%	-28.1%	8.8	-0.7	-3.2%	1.3%
COc1ccc(-c2nn(-c3ccccc3)cc2C(=O)NC(=S)N2CCOCC2)cc1OC	.	18.2%	.	-22.9	5.7	4.8%	-11.7%
O/N=C1/CCCSc2ccccc21	1.1	4.2%	13.2%	19.7	-19.9	-3.3%	7.4%
C/C(=N\NC(=O)c1cccnc1)c1ccc(Br)cc1	-0.1	-61.4%[inhibitor]	21.0%	3.7	-5.7	.	1.7%
COc1ccc(NC(=O)CC2C(=O)N(c3ccc(Cl)cc3)C(=S)N2NC(=O)c2cccc(F)c2)cc1 (stereo not given)	2.1	-31.7%[inhibitor]	-6.9%	9.4	4.1	2.5%	-13.7%
FC(F)(F)c1ccc(NC(=S)NC2CCCCC2)cc1	-2.2	-2.4%[15.4 µM]	11.5%	-7.3	-1.3	.	-9.2%
O=C(Cc1ccc(S(=O)(=O)N2CCOCC2)s1)Nc1nc2c(s1)CCCC2	?	-37.7%[inhibitor]	-107.0%	-3.5	-5.3	1.2%	7.94µM*

Compound activity from PubChem BioAssay.
